High-throughput results (PubChem)
MazF activator = activators of E. coli MazEF toxin-antitoxin RNase; AID 504720; activation, % at 20 µM; 0.32% of 350,000 active; FAM/BHQ RNA-DNA oligo cleavage fluorescence, 5 h; in the data active means activation above about 50%
Target sequence (P0AE70 whole entry, looked up): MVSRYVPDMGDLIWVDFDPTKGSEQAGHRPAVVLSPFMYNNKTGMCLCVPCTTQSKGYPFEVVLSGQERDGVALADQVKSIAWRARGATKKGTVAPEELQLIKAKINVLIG
Rv3671c protease = Rv3671c (M. tuberculosis) protease inhibition | AID 2606 | 0.048% of 320,000 active | inhibition, % at 5.96 µM; in the data active means inhibition above about 38%;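 further: extracellular domain of Rv3671c used as enzyme; 0% = enzyme with DMSO and 100% = no enzyme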
Vc quorum ag = inducers of Vibrio cholerae quorum light production without autoinducers; activation, % at 18.7 µM; AID 588436; 0.16% of 350,000 active; V. cholerae BH1578 lux reporter, luminescence, 6 h; in the data active means activation mostly above about 9.7%, no sharp cut-off; further: not every result past the cut was called active; inactives centre near 0; reference of the scale not given here
DUSP3 inh = blocks human VHR1 dual specificity phosphatase. recombinant VHR phosphatase, pNPP absorbance. inhibition, % at 13.3 µM. AID 1654. 0.52% of 290,000 active; in the data active means inhibition above about 50%; further: some compounds called inactive have numbers as strong as hits
Mtb UGM inh = blocks M. tuberculosis UGM enzyme. P9WIQ1. purified UGM, fluorescence polarization probe displacement. inhibition, % at 10 µM. 0.06% of 320,000 active; in the data active means inhibition above about 10%, passing the limit was not always enough
Target sequence (P9WIQ1 whole entry, looked up): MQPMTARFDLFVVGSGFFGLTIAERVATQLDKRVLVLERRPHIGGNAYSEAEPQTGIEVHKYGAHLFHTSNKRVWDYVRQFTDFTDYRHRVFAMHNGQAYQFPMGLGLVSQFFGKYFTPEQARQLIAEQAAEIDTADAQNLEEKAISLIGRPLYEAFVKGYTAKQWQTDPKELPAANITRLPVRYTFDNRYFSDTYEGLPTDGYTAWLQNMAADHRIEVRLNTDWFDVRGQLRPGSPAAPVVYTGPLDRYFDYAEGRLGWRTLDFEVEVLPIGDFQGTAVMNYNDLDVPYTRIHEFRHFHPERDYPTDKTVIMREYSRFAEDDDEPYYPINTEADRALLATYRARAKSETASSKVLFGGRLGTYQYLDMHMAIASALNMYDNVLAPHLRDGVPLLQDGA
The depositor's hits bear a star; i = inactive; x = no result given; & = joins results of further samples. These rows are one share of the data. The share of hits here may be higher or lower than overall.

Short forms – A = MazF activator; B = Rv3671c protease; C = Vc quorum ag; D = DUSP3 inh; E = Mtb UGM inh
> CC12CCC(=O)C=C1CCC1C2C(O)CC2(C)C1CCC2(O)C(=O)CO (configuration not stated)
  A: -2; B: -6; C: -5.8; D: -2; E: -0.5

> O=C(O)c1cc(-c2ccccc2)nc2ccccc12
  A: -5; B: 5; C: i; D: 5; E: -1.9

> CCOC(=O)[C@@H](CCc1ccccc1)N[C@H](C)C(=O)N1[C@H](C(=O)O)C[C@@H]2CCC[C@@H]21
  A: 0; B: 0; C: i; D: 6; E: -2.9

> CC(=O)c1nc2ccccc2n1S(=O)(=O)c1ccc(Cl)cc1
  A: -1; B: -4; C: -0.2; D: 11; E: 0.8

> Cc1ccc(-c2nnc(N3CCN(C(=O)c4ccco4)CC3)c3ccccc23)cc1
  A: 0; B: -2; C: x; D: 8; E: -0.6

> CCOC(=O)[C@H](CCc1ccccc1)N[C@@H](C)C(=O)N1C(C(=O)O)C[C@@H]2CCC[C@@H]21 (some centres not stated)
  A: 4; B: 1; C: -0.6; D: x; E: 1.1

> CC[C@@H](CO)NC(=O)[C@@H]1C=C2c3cccc4c3c(cn4C)C[C@H]2N(C)C1
  A: -18&-20; B: -22&-8&-28; C: 6.2; D: 5&10; E: 2.6&1.8&2.3

> CON(C)C(=O)Nc1ccc(Cl)cc1
  A: 8; B: -11; C: i; D: 19; E: 0.6

> O=C1CN=C(c2ccccc2)c2cc(Cl)ccc2N1
  A: 4; B: 12; C: -0.3; D: x; E: x

> Cc1nc(-c2ccccc2)c(-c2ccccc2)[nH]1
  A: 7; B: 12; C: x; D: 4; E: 0.2

> C[N+]1(C)C2CC(OC(=O)[C@H](CO)c3ccccc3)CC1C1OC12 (some centres not stated)
  A: -4; B: 0; C: i; D: x; E: 2.3

> OCc1ccccc1O[C@@H]1O[C@H](CO)[C@@H](O)[C@H](O)[C@H]1O
  A: -12; B: -10; C: -0.4; D: 16; E: 1.6

> C=C1C/C(=C/C)C(=O)O[C@@H]2CCN3CC=C(COC(=O)[C@]1(C)O)[C@H]23
  A: 1; B: -3; C: -0.3; D: 7; E: 5.6

> O=C(O)/C=C\C(=O)O
  A: 0; B: -2; C: 3.6; D: x; E: -2.5

> CC(C)(C)CC(C)(C)c1ccc(OCCOCC[N+](C)(C)Cc2ccccc2)cc1
  A: -14; B: 8; C: i; D: x; E: 0.2

Compounds shown so far that have a COOH group, in the order listed:
Short forms – A = MazF activator; B = Rv3671c protease; C = Vc quorum ag; D = DUSP3 inh; E = Mtb UGM inh
> O=C(O)c1cc(-c2ccccc2)nc2ccccc12
  A: -5; B: 5; C: i; D: 5; E: -1.9

> CCOC(=O)[C@@H](CCc1ccccc1)N[C@H](C)C(=O)N1[C@H](C(=O)O)C[C@@H]2CCC[C@@H]21
  A: 0; B: 0; C: i; D: 6; E: -2.9

> CCOC(=O)[C@H](CCc1ccccc1)N[C@@H](C)C(=O)N1C(C(=O)O)C[C@@H]2CCC[C@@H]21 (some centres not stated)
  A: 4; B: 1; C: -0.6; D: x; E: 1.1

> O=C(O)/C=C\C(=O)O
  A: 0; B: -2; C: 3.6; D: x; E: -2.5

Other compounds
Short forms – A = MazF activator; B = Rv3671c protease; C = Vc quorum ag; D = DUSP3 inh; E = Mtb UGM inh
> Cc1nc2ccc(S(=O)(=O)NCC(=O)NCCN3CCCCCC3)cc2s1
  A: -3; B: 3; C: i; D: 10; E: -3.5

> COc1ccc(C(=O)NN)cc1
  A: 6; B: 1; C: 0.6; D: 18; E: 0.6

> COc1cc(C(=O)O)ccc1O
  A: 3; B: -3; C: -8.3; D: 24; E: -1.2

> OCCNCCO
  A: 6; B: -9; C: -0.6; D: 16; E: -0.6

> CN1CCCC1c1cccnc1 (configuration not stated)
  A: 8; B: 3; C: -0.3; D: x; E: -3.8

> Cc1cccc(C)c1NC(=O)CN1CCNCC1
  A: -1; B: 6; C: -3.6; D: 33; E: -1.4

> O=C(O)C[C@@H](O)C(=O)O
  A: 8; B: 5; C: 5.0; D: 1; E: -0.8

> CC(C)(C)c1cc(NC(=O)COC(=O)c2ccccc2O)n(-c2ccccc2)n1
  A: 3; B: x; C: i; D: x; E: x

> CC1(C)S[C@@H]2[C@H](NC(=O)[C@H](N)c3ccccc3)C(=O)N2[C@H]1C(=O)O
  A: 9&0; B: -1&0; C: 8.7; D: 16; E: 0.7&1.0

> C[C@H]1C[C@@H](C)C(=O)[C@@H]([C@H](O)CC2CC(=O)NC(=O)C2)C1
  A: 7; B: 11; C: -0.3; D: 3; E: 0.2

> CCOc1ccc2nc(S(N)(=O)=O)sc2c1
  A: 6; B: -2; C: 0.5; D: 12; E: -0.8

> CN1[C@@H]2CCC[C@H]1CC(NC(=O)c1nn(C)c3ccccc13)C2 (some centres not stated)
  A: 4; B: 5; C: -0.3; D: x; E: 2.1

> Cc1cccc(N2CCN(C(=O)c3cc4c(=O)n(C)c5ccccc5c4n3C)CC2C)c1 (configuration not stated)
  A: -11; B: -12; C: -0.4; D: 12; E: 1.1

> NCCS(=O)(=O)O
  A: 2; B: 3; C: 2.8; D: x; E: 2.6

> CN(C)Cc1cc(C(C)(C)C)c(O)c(C(C)(C)C)c1
  A: 6; B: 3; C: i; D: 19; E: -1.4

> Cc1ccc(NC(=O)C2CCCN2S(=O)(=O)c2cccc3cccnc23)c(C)c1 (configuration not stated)
  A: -26; B: -6; C: i; D: -1; E: 2.2

> COc1ccc2c(c1OC)C(=O)O[C@H]2[C@@H]1c2cc3c(cc2CCN1C)OCO3
  A: 3; B: 7; C: i; D: x; E: -1.1

> c1ccc2sc(C3CCCNC3)nc2c1 (configuration not stated)
  A: 5; B: -4; C: i; D: 6; E: -0.2

Entries of single compounds, looked up by structure. Order of screens: MazF activator | Rv3671c protease | Vc quorum ag | DUSP3 inh | Mtb UGM inh
Results for Cc1nc2ccc(S(=O)(=O)NCC(=O)NCCN3CCCCCC3)cc2s1 : -3 | 3 | i | 10 | -3.5
Results for c1ccc2sc(C3CCCNC3)nc2c1 (configuration not stated) : 5 | -4 | i | 6 | -0.2
Results for NCCS(=O)(=O)O : 2 | 3 | 2.8 | x | 2.6
Results for OCCNCCO : 6 | -9 | -0.6 | 16 | -0.6
Results for Cc1ccc(NC(=O)C2CCCN2S(=O)(=O)c2cccc3cccnc23)c(C)c1 (configuration not stated) : -26 | -6 | i | -1 | 2.2
